Screening data: PubChem, ICCB-Longwood Screening Facility, Harvard Medical School
GIV-Gai inh = blocks GIV peptide binding to rat Galpha-i3; P08753; Galpha-i3/FITC-GIV peptide fluorescence polarization, 90 min; hits give low values; scaled: aluminum fluoride 0%, vehicle 100%; percent of control (FP), % (concentration not given with the values); 0.42% of 210,000 active; AID 1224905;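 active means replicate mean at 85% of control or lower, very high polarization wells dropped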;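 further: wells of about 15 µL received 100 nL stock; the first replicate is given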
Target sequence (P08753 whole entry, looked up): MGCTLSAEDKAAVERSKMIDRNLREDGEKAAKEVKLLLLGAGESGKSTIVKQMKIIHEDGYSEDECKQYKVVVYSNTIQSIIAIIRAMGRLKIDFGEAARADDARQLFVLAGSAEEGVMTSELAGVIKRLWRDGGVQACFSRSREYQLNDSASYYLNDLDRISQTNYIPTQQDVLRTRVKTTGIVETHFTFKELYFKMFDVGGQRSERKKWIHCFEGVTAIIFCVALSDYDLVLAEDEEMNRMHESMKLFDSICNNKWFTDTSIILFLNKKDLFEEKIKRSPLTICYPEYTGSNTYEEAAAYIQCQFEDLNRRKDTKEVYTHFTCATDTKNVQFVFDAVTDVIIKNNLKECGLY
Sa growth inh = S. aureus growth inhibition; 0.53% of 170,000 active; relative growth, % (no concentration beside the values); AID 720641; S. aureus RN4220 growth, OD600, 20 h, 42 °C; hits give low values;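 active means growth at 42 °C up to 50% and 20 or more points under that at 30 °C, or under 10% at both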;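 further: 300 nL library stock went into each well; scaled to the means of positive and negative controls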
HCMV UL50-53 inh = cytomegalovirus nuclear egress complex inhibition; inhibition, % (concentration not given with the values); AID 1918969; 0.15% of 190,000 active; HTRF UL50-UL53 interaction, normalized percent inhibition;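 active means both replicates at 50% or more, plus weaker picks with an unusually low signal ratio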;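 further: stock transfer was 100 nL into about 20 µL; 0% = negative control wells and 100% = wells with untagged competitor protein; inactives centre near -12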
Sa growth inh second temp = second read-out of Sa growth inh, no call of its own (marks repeat the call); relative growth, %; measured here: growth at 30 °C;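 optical density after 20 h as mean of two plates; 100% = untreated growth and lower means inhibition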
* = called active by the depositor; x = no result given; & = joins results of further samples.

Second line of a record – GIV-Gai inh, Sa growth inh, Sa growth inh second temp, HCMV UL50-53 inh
- CCOC(=O)C1CCN(C2=NC(C)C(=O)N2c2ccc(C)cc2)CC1 (configuration not stated)
    107, 96, 94, 12
- COc1cc(CNC(C)(C)CO)ccc1OCc1ccc2c(c1)n(C)c(=O)n2C
    100, x, x, -13
- CC(C)NC(=O)CN1CCN(c2cc(C(=O)O)c3cc(NC(=O)C4CCC4)ccc3n2)CC1
    104, x, x, -15
- Cc1oc(-c2ccno2)cc1S(=O)(=O)NC1CC1
    109, x, x, -32
- Cc1cc(C)n2nc(C(=O)OCC(=O)N3CCN(S(=O)(=O)c4ccccc4)CC3)nc2n1
    x, 91, 98, -3
- NNC(=O)CS(=O)Cc1cccc(C(F)(F)F)c1 (configuration not stated)
    103, 101, 97, 28
- O=S(=O)(c1cccc(Cl)c1)c1nnn2c1nc(NC1CCCC1)c1sccc12
    98, 95, 92, x
- Cc1ccc(C(=O)NCCn2c(C)cc3ccccc32)cc1
    111, 119, 96, 19
- COc1cccc(CNC(=O)c2ccc(-c3nc(COc4ccccc4)c(C)o3)cc2)c1
    103, 97, 87, x
- Cc1cccc(C)c1NC(=O)COc1ncnc2ccccc12
    x, 102, 86, -13
- CCCn1c(-c2ccc(S(=O)(=O)N3CCOCC3)cc2)csc1=Nc1ccc(OCC)cc1
    106, 92, 93, -2
- CC1=CC(C)C2COC(c3cccnc3)C1C2C (configuration not stated)
    96, 103, 82, 4
- COc1ccc(-n2c3c(cc(C(=O)N4CCC(C)CC4)c2=O)C(=O)CC(C)(C)C3)cc1
    106, x, x, 7
- Cc1ccc2nc(NC(=O)CSc3nccn3Cc3ccc(F)cc3)sc2c1
    97, 119, 81, x
- Nc1cc(N)nc(SCc2noc(-c3ccc(Cl)cc3)n2)n1
    104, 93, 85, -1
- CC(=O)Oc1ccccc1C(=O)O
    102&109, 90&74, 89&87, -6&-14&1&-23
- CCOC(=O)N1CCN(CC(O)Cn2c(=O)c3c(ncn3C)n(C)c2=O)CC1 (configuration not stated)
    102, 99, 103, 18
- CC(C)(C)c1nocc1C(=O)Nc1ccc(Cl)cc1
    98, 83, 105, -5
- COc1cc([N+](=O)[O-])ccc1N1C(=O)C2C3C=CC(O3)C2C1=O (configuration not stated)
    99, x, x, -77
- COc1cccc2c1cc1c(=O)n(CC(=O)N3CCN(c4ccc(Cl)cc4)CC3)nc(C)n12
    100, 107, 80, 4
- O=C(CSCc1cc(=O)n2[nH]c(-c3ccccc3)nc2n1)Nc1ccc(F)cc1
    103, x, x, -4
- Fc1ccc(-c2cn3cc(Cc4ccccc4)sc3n2)cc1
    104, 108, 92, -25
- COc1ccc(-c2nn(CCC#N)cc2/C=N\NC(=O)c2ccccc2)cc1
    100, 103, 86, -37
- O=C(COc1ccc2ccccc2c1)Nc1cccc(-c2nc3ncccc3o2)c1
    107, 115, 90, x
- CCCN(CC1CC1)C(=O)CSc1nnnn1-c1ccc(OC)cc1
    x, 74, 71, -26
- CCCNS(=O)(=O)c1ccc2c(c1)CC(C)N2C(=O)C1CCC1 (configuration not stated)
    102, 101, 89, 4
- O=C1CCCc2cc(S(=O)(=O)N3CCCC(C(=O)N4CCCCC4)C3)ccc2N1 (configuration not stated)
    105, 111, 90, -16
- Brc1ccc(SCCc2ccncc2)cc1
    100, 69, 46, -5
- C(=N\c1ncccn1)/c1ccncc1
    x, 94, 88, -3
- C=CCn1c(SCC(=O)N(C(C)C)C(C)C)nc2scc(-c3ccco3)c2c1=O
    x, 107, 93, -8
- CCn1c(SCC(=O)c2ccccc2)nnc1-c1ccc(OC)cc1
    x, 98, 84, 3
- COc1ccc2c(c1)c(CC(=O)Nc1ncccc1C)c(C)n2C(=O)c1ccc(Cl)cc1
    x, 107, 86, -20
- O=C(O)Cn1c(-c2cccs2)cc2cc(Cl)ccc21
    104, 82, 65, -98
- CCC(=O)Nc1cc2c3c(c1)C(C)C(=O)N3CCC2 (configuration not stated)
    102, 102, 92, -18
- COc1ccc(OCCC(=O)Nc2nnc(C3CC3)s2)cc1
    x, 105, 94, 10
- COc1ccc(Cn2nnc3c(=O)[nH]c(C4CCN(C(=O)c5ccc(C)cc5)CC4)nc32)cc1OC
    96, 10, 16, 7
- COc1ccc(CNC(=O)c2cnc(N(C)C)nc2)cc1
    108, 107, 93, x
- Cc1ccccc1N(CC(=O)Nc1ccccc1N1CCN(C)CC1)S(C)(=O)=O
    x, 113, 100, -13
- CCc1nc(NCc2ccc(C)cc2)c2onc(-c3ccc(C)cc3)c2n1
    107, x, x, -27
- CCc1ccc(-n2[nH]c3ncccc3c2=O)cc1
    105, x, x, -32
- CCOC(=O)c1ccccc1NC(=O)Cn1c(=O)n(Cc2ccco2)c(=O)c2ccccc21
    109, 89, 90, 7
- Cc1ccc(CNC(=O)c2cccc(-n3cnc4cccnc43)c2)cc1
    105, 93, 94, x
- CCc1noc(C)c1C(=O)NCc1ccc(C(=O)OC)cc1
    x, 65, 87, -34
- O=C(O)CCC(=O)CCN1CCCCC1
    102, 91, 93, -8
- O=C1NC2(Cc3ccccc3C2)Nc2ccccc21
    101, 101, 103, 12
- O=C(Nc1ccc(F)cc1)C1=CCN(Cc2ccc(F)cc2)CC1
    100, x, x, -35
- Cc1ccc(NC(=O)c2sc3nc[nH]c(=O)c3c2C)cc1C
    108, 107, 99, x
- CCOC(=O)C1CCN(S(=O)(=O)c2ccccc2)CC1
    106, 92, 99, -36
- Cc1cc(N2CCCCC2)nc2ccc(NC(=O)c3cccc(F)c3)cc12
    102, 90, 80, 9
- CCOC(=O)C1CCCN(C(=O)c2ccccc2F)C1 (configuration not stated)
    x, 100, 89, -14
- Cc1ccc(-n2nc(C(=O)O)c(/C=C/c3ccc(Cl)cc3Cl)c(C#N)c2=O)cc1C
    x, 101, 68, -43
- Clc1cccc(Cl)c1OCCCn1ccnc1
    x, 103, 54, -10
- COc1cccc(-c2nc3c(C#N)c[nH]n3c2NC2CCC(C)CC2)c1 (configuration not stated)
    99, 101, 74, -4
- CCCOc1ccc(C2NC(=O)NC(C)=C2C(=O)OCc2ccc(OC)cc2)cc1 (configuration not stated)
    102, x, x, -16
- O=C(Nc1onc2c1CCCC2)c1ccccc1
    105&103, 107, 82, 4&-28
- C=CCN1C(=O)/C(=N\N=C\c2c(C)nn(-c3ccccc3)c2C)c2ccccc21
    x, 102, 77, -10
- COc1ccc(OCC(=O)NCc2ccc3c(c2)CCN3C(=O)c2ccc(F)cc2)cc1
    105, 111, 100, x
- COc1ccccc1-c1c(C)nn2c(N3CCN(c4cccc(Cl)c4)CC3)cc(C)nc12
    96, 101, 88, x
- O=C(c1cc(-c2ccccc2)on1)N(Cc1ccccc1)c1ccccc1
    106, 108, 97, -12
- Cc1cc(C)cc(Nc2nc3c(S(=O)(=O)c4cccc(Cl)c4)nnn3c3ccsc23)c1
    102, 108, 84, x

14 compounds out of the list, arranged by SMILES length, ascending:
Second line of a record – GIV-Gai inh, Sa growth inh, Sa growth inh second temp, HCMV UL50-53 inh
- Brc1ccc(SCCc2ccncc2)cc1
    100, 69, 46, -5
- O=C1NC2(Cc3ccccc3C2)Nc2ccccc21
    101, 101, 103, 12
- Cc1ccc(C(=O)NCCn2c(C)cc3ccccc32)cc1
    111, 119, 96, 19
- CCc1noc(C)c1C(=O)NCc1ccc(C(=O)OC)cc1
    x, 65, 87, -34
- CCn1c(SCC(=O)c2ccccc2)nnc1-c1ccc(OC)cc1
    x, 98, 84, 3
- O=C(Nc1ccc(F)cc1)C1=CCN(Cc2ccc(F)cc2)CC1
    100, x, x, -35
- Cc1ccc(CNC(=O)c2cccc(-n3cnc4cccnc43)c2)cc1
    105, 93, 94, x
- Cc1ccc2nc(NC(=O)CSc3nccn3Cc3ccc(F)cc3)sc2c1
    97, 119, 81, x
- COc1cccc(-c2nc3c(C#N)c[nH]n3c2NC2CCC(C)CC2)c1 (configuration not stated)
    99, 101, 74, -4
- Cc1ccccc1N(CC(=O)Nc1ccccc1N1CCN(C)CC1)S(C)(=O)=O
    x, 113, 100, -13
- CCOC(=O)N1CCN(CC(O)Cn2c(=O)c3c(ncn3C)n(C)c2=O)CC1 (configuration not stated)
    102, 99, 103, 18
- Cc1ccc(-n2nc(C(=O)O)c(/C=C/c3ccc(Cl)cc3Cl)c(C#N)c2=O)cc1C
    x, 101, 68, -43
- CC(C)NC(=O)CN1CCN(c2cc(C(=O)O)c3cc(NC(=O)C4CCC4)ccc3n2)CC1
    104, x, x, -15
- COc1ccc(Cn2nnc3c(=O)[nH]c(C4CCN(C(=O)c5ccc(C)cc5)CC4)nc32)cc1OC
    96, 10, 16, 7

(further entries)
Second line of a record – GIV-Gai inh, Sa growth inh, Sa growth inh second temp, HCMV UL50-53 inh
- CC(C)S(=O)(=O)c1nc2ccccc2n1Cc1ccccc1
    100, 97, 88, -17
- CC(NC(=O)c1cccn1C)C12CC3CC(CC(C3)C1)C2 (configuration not stated)
    x, 99, 93, 1
- O=C(OCC(=O)N(c1ccccc1)C1CCCCC1)C1COc2ccccc2O1 (configuration not stated)
    x, 93, 91, -9
- CCc1nnc(NC(=O)CCN2C(=O)/C(=C/c3ccc4c(c3)OCO4)SC2=S)s1
    100, x, x, -8
- CCc1c(C)nc(SCC(=O)N(CC)CC)c(C#N)c1C
    104, 106, 90, -17
- CCOC(=O)c1c(C)oc2ncnc(NCCc3ccccc3)c12
    108, 101, 90, x
- CCOC(=O)c1c(C)n(C)c2c1cc(OC(=O)c1ccccc1OC)c1ccccc12
    96, x, x, -6
- O=C(Nc1ccccc1-c1nc2ccccc2s1)c1ccc(Cl)cc1
    98, x, x, -5
- Cc1cc(NC(=O)CN(C)S(=O)(=O)c2ccc3c(c2)CCC(=O)N3)ccc1Br
    106, 102, 93, -15
- CCOc1ccccc1NC(=O)n1ncc2cc(Cl)ccc21
    106, 89, 88, 4
- O=C(Nc1ccc(S(=O)(=O)N2CCOCC2)cc1)C(F)(F)C1(F)OC(F)(F)C(F)(F)C1(F)F (configuration not stated)
    x, 95, 85, -19
- O=C(Nc1ccc(F)cc1)C(c1ccccc1)N1CCN(c2ccccc2F)CC1 (configuration not stated)
    x, 85, 94, 15
- Cn1c(CN(c2ccc(F)cc2)S(C)(=O)=O)nnc1SCC(=O)Nc1ccc(F)c(F)c1
    103, x, x, -10
- CCOC(=O)C1=C(C)N=c2s/c(=C\c3cc(Br)cc(OC)c3O)c(=O)n2C1c1ccc(OC)c(OC)c1 (configuration not stated)
    119, x, x, -18
- Nc1ccn(Cc2ccc(F)cc2)n1
    102, 82, 81, 26
- CCOC(=O)C(C#N)C1(c2ccccc2)CCOC(C)(C)C1 (configuration not stated)
    101, 98, 83, -9
- Cc1cc(C(=O)Cn2nnc3ccccc3c2=O)c(C)n1C
    x, 89, 95, -67
- CCOC(=O)N1CCN(c2ccc3ccccc3n2)CC1
    x, 108, 77, 4
- CCc1ccc(CNC(=O)c2cc3cc(S(=O)(=O)N4CCCCC4)ccc3n2C)cc1
    95, 75, 87, x
- COc1ccc(C2=NOC(C(=O)N3CCCCC3)C2)cc1 (configuration not stated)
    100, 82, 92, -4
- C#CCSc1cccc2cccnc12
    102, 79, 106, -23
- COc1cc(N2C(=O)CSC23C(=O)N(Cc2cccc(F)c2)c2ccccc23)cc(OC)c1OC (configuration not stated)
    99, 111, 81, x
- CCSc1nnc(C2CCCN(CC(=O)Nc3nc(C)cs3)C2)n1C (configuration not stated)
    100, 101, 70, -13
- CCOC(=O)c1c(C)n(C)c2c1cc(OC(=O)c1ccc(C(C)(C)C)cc1)c1ccccc12
    99, x, x, -20
- Cc1cc(-c2ccc(C)c(S(=O)(=O)N(C)Cc3ccccc3)c2)on1
    107, 93, 103, -10
- Cc1nc2ccn(Cc3cccnc3)c(=O)c2cc1C(=O)Nc1ccc(OC(F)(F)F)cc1
    98, 92, 88, x
- COc1cccc(C(=O)c2cn(CC(=O)Nc3cccc(C(F)(F)F)c3)c3nc(C)ccc3c2=O)c1
    108, 98, 90, x
- O=C(CN1CCn2nc(-c3ccccc3)cc2C1=O)N1CCCC1
    98, 102, 89, -18
- Cc1cc(N2CCN(Cc3ccccc3)CC2)n2nc(C(F)(F)F)c(-c3ccc(F)cc3)c2n1
    99, x, x, -18
- CCN(CC)C(=O)O[n+]1ccccc1C(C)C
    99, 9, 22, -8
- O=C(Oc1ccc(N(Cc2cccs2)C2=NS(=O)(=O)c3ccccc32)cc1)c1ccccc1
    100, 115, 83, x
